Screening data from PubChem BioAssay.
SARS PLpro yeast – qHTS of Yeast-based Assay for SARS-CoV PLP; S. cerevisiae expressing SARS-CoV PLpro, growth rescue; control for the full effect not named in the record; Potency, µM (highest dose often 32.9 µM), for the others: at the top dose activity, positive = growth rescue; actives 0.19% (n = 330,000); AID 485353, 2010; also: 0% is about no effect; nearly all actives have a fitted effect of over 55% in size; growth read by luminescence after 48 h
NS1 function inh – qHTS Assay for Inhibitors of Influenza NS1 Protein Function; S. cerevisiae slowed by influenza A NS1, growth recovery by OD600; Potency, µM (top dose mostly 46.1 µM), inactives show top-dose activity, positive = more growth; actives 0.4% (n = 270,000); also: actives are rising curves; nearly all actives have a fitted effect of over 50% in size
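Compounds were scored for reversing the slow growth caused by influenza A NS1 in S. cerevisiae, measured by optical density at 600 nm. Assay medium contained 2% galactose at pH 6.0; NS1-free yeast of the same strain were the positive control.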
Cruzain inh Det – qHTS Assay for Promiscuous and Specific Inhibitors of Cruzain (with detergent) | Cruzipain (Trypanosoma cruzi), P25779 | purified cruzain, Z-FR-AMC fluorescence, 0.01% Triton | Potency, µM, for inactives: max response, negative = inhibition, most hits filed as inhibitors | actives 0.43% (n = 200,000) | AID 1478, 2009; active = well fitted curve in the direction sought with a large enough effect; inconclusive = small, poorly fitted or top-dose-only effect, or another doubt; inactive = no such curve, though single readings can be large; an effect the other way counts as inactive or inconclusive;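 also: plate controls were neutral wells for no effect and buffer without enzyme for full effect; nearly all actives have a fitted effect of over 40% in size; top concentration of the series not given in the record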
Target sequence (P25779 123-467 limits assumed): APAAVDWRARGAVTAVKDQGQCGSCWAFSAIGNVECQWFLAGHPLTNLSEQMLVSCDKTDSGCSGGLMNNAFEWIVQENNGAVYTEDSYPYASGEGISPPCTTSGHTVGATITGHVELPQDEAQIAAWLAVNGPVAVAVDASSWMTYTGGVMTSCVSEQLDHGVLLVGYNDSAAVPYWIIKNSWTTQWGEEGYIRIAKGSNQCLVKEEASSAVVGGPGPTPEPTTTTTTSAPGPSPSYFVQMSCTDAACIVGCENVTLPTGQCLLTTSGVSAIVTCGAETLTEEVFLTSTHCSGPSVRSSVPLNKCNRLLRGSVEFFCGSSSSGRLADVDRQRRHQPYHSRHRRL
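15 min RT preincubation of 1.5 nM cruzain with compound, then 2 uM Z-FR-AMC added; kinetic AMC fluorescence, 60 s delta. Triton X-100 0.01%, pH 5.5.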
RE007 growth inh – qHTS Assay for Inhibitors of the HIV-1 protein Vpr; S. pombe RE007 Vpr strain, BacTiter-Glo ATP luminescence, 24 h; control for the full effect not named in the record; Potency, µM (highest dose often 92.2 µM), without a hit: at the top dose activity change, negative = less growth; actives 0.21% (n = 360,000); active = well fitted falling curve with a large enough effect; inconclusive = small, poorly fitted or top-dose-only effect; inactive = no such curve, though single readings can be large or run the other way;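 also: % is scaled to controls: 0 for no effect and ±100 for the full control effect; nearly all actives have a fitted effect of over 50% in size; the assay follows cell death caused by Vpr and the record does not say whether a fall means rescue or toxicity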
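Fission yeast strain RE007, carrying one chromosomally integrated HIV-1 vpr copy, was seeded at OD 0.01 in PMG+AL medium with 23 nL pinned compound. After 24 h at 30 °C and 99% humidity, viability was read by BacTiter-Glo luminescence.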
Cruzain inh noDet – qHTS Assay for Promiscuous and Specific Inhibitors of Cruzain (without detergent); Cruzipain (Trypanosoma cruzi), P25779; AID 1476, 2009; Potency, µM, without a hit: max response, negative = inhibition, actives largely listed as inhibitors; purified cruzain, Z-FR-AMC fluorescence, no detergent; actives 2.3% (n = 200,000); active = well fitted curve in the direction sought with a large enough effect; inconclusive = small, poorly fitted or top-dose-only effect, or another doubt; inactive = no such curve, though single readings can be large; an effect the other way counts as inactive or inconclusive;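 also: plate controls were enzyme without inhibitor for no effect and buffer without enzyme for full effect; nearly all actives have a fitted effect of over 40% in size; top concentration of the series not given in the record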
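Detergent-free condition (0.00005% Triton X-100) in acetate buffer pH 5.5 with DTT. 1.5 nM enzyme and compound were pre-mixed 15 min, then 2 uM Z-FR-AMC substrate added; reaction progress from fluorescence change between first and third reads (60 s).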
MARV entry inh – qHTS for inhibitors of binding or entry into cells for Marburg Virus; Marburg virus pseudotyped entry inhibition, cell reporter; control for the full effect not named in the record; about a third of the inactives were read at about 46 µM; Potency, µM (top dose mostly 37.8 µM), inactives show at the top dose activity change, negative = inhibition, usual class: inhibitors; actives 1.8% (n = 300,000); active = well fitted inhibition curve with a large enough effect; inconclusive = small, poorly fitted or top-dose-only effect, or effect the other way; inactive = flat fitted curve, though single readings scatter; tested in HEK293 cells; about a fifth of its hits are not listed in these tables; also: % is scaled to controls: 0 for no effect and ±100 for the full control effect; luciferase read-out
2A StopGo – High Throughput Screening for Foot and Mouth Disease Virus Antivirals; AID 1159524, 2015; actives 1.2% (n = 410,000); human cells with a luciferase reporter of 2A StopGo recoding; control for the full effect not named in the record; Potency, µM (series often up to 57.9 µM), inactives show top-dose signal change, negative = less light; active = well fitted falling curve with a large enough effect; inconclusive = small, poorly fitted or top-dose-only effect; inactive = no such curve, though single readings can be large or run the other way; tested in HEK293T cells; also: % is scaled to controls: 0 for no effect and ±100 for the full control effect; nearly all actives have a fitted effect of over 45% in size; luciferase light after 4 h
Lassa entry inh – qHTS for Inhibitors of binding or entry into cells for Lassa Virus. Lassa virus pseudotype entry inhibition, cell reporter; control for the full effect not named in the record. actives 1.2% (n = 300,000). AID 540256, 2011. Potency, µM (doses to about 37.9 µM), without a hit: top-dose activity change, negative = inhibition, usual class: inhibitors; active means well fitted inhibition curve with a large enough effect; inconclusive means small, poorly fitted or top-dose-only effect, or effect the other way; inactive means flat fitted curve, though single readings scatter; tested in HEK293 cells; also: % is scaled to controls: 0 for no effect and ±100 for the full control effect; nearly all actives have a fitted effect of over 50% in size; luciferase read-out
Starred values were filed as active, the others as inactive; u = inconclusive; x = not tested or not shown; & = joins results of further samples; [ ] = another dose, or the depositor's remark. Unless noted, calls follow the shape of the dose curve; as a rule, active means well fitted rising curve with a large enough effect; inconclusive means small, poorly fitted or top-dose-only effect; inactive means no such curve, though single readings can be large or run the other way. Potency is read from the fitted curve at half-maximal effect.

SMILES	SARS PLpro yeast	NS1 function inh	Cruzain inh Det	RE007 growth inh	Cruzain inh noDet	MARV entry inh	2A StopGo	Lassa entry inh
CCOc1ccccc1C(=O)Nc1cc(=O)n(C)c(=O)n1C	1%	1%	x	13%	x	x	4%	x
COc1ccc(S(=O)(=O)NCCSC(C)(C)C)cc1Cl	-1%	-49%	-3.1%	0%	4%	-30%	x	5%
COc1cc(S(=O)(=O)N2CCN(Cc3ccccc3)CC2)ccc1Br	-7%	-52%	0.1%	2%	-4%	u	0%	u
Cc1cc(C)nc(NC(=O)CSc2nc3ccccc3o2)n1	-11%	-9%	9.0%	-3%	1%	3%	50%[activator]	2%
O=C1C2CCCN2c2ccc(S(=O)(=O)N3CCOCC3)cc2N1Cc1cccc(C(F)(F)F)c1 (configuration not stated)	6%	u	-3.7%	x	8%	-2%	x	x
COC(=O)CN1C(=O)Nc2ccc(Br)cc2C1c1ccccc1 (configuration not stated)	10%	-1%	-5.2%	23%	-8%	-46%[46.1 µM]	-15%	12%
O=C1CC(N2CCOCC2)C(=O)N1c1cc(Cl)cc(Cl)c1 (configuration not stated)	-22%	-174%	-2.4%	11µM*	-16%	-6%	-4%	5%
CN(C(=O)c1ccncc1)c1nnc(-c2ccncc2)s1	-3%	5%	3.4%	-2%	-6%	7%	6%	-1%
CCOc1ccc(S(=O)(=O)N2CCC(C(=O)NCc3ccccn3)CC2)cc1Cl	16%	-20%	x	2%	x	0%[46.1 µM]	2%	12%
COc1ccc(CNC(=O)c2cc(C3CC3)on2)cc1	-1%	-11%	1.5%	18%	-6%	x	0%	x
COCCNC(=O)Cn1nc(N2CCN(c3ccccc3OC)CC2)ccc1=O	x	x	1.4%	x	-6%	x	0%	11%[46.1 µM]
Cc1ccc(NC(=O)C2CCCN(c3nccc(C)n3)C2)c(C)c1 (configuration not stated)	0%	-21%	x	8%	x	7%[46.1 µM]	10%	9%[46.1 µM]
Cc1ccc(Nc2ccc(S(=O)(=O)N3CCOCC3)cc2[N+](=O)[O-])c(C)c1	12%	11%	-3.6%	17%	2%	u	-28%	u
COc1ccc2c(c1)/C(=C/c1cnc[nH]1)C(=O)N2	-16%	-103%&-31%	-4.8%	-2%[18.4 µM]	-11%	u	15%	u
O=C(Nc1ccc(C(F)(F)F)cc1)C1CCCCN1S(=O)(=O)c1ccccc1 (configuration not stated)	-6%	x	x	54%	x	u	-27%	-23%

Results in 2A StopGo and RE007 growth inh, for 2 of the compounds above:
smiles | 2A StopGo | RE007 growth inh
COc1ccc(CNC(=O)c2cc(C3CC3)on2)cc1 | 0% | 18%
COCCNC(=O)Cn1nc(N2CCN(c3ccccc3OC)CC2)ccc1=O | 0% | x

New compounds follow.
SMILES	SARS PLpro yeast	NS1 function inh	Cruzain inh Det	RE007 growth inh	Cruzain inh noDet	MARV entry inh	2A StopGo	Lassa entry inh
Cc1ccc(NC(=O)Cn2nc(-c3ccccc3)nc(Cc3ccc(Cl)cc3)c2=O)cc1	x	x	1.4%	x	25µM*	x	-9%	21%[46.1 µM]
COc1ccccc1Nc1nnc(SCC(=O)c2cc(C)n(CC3CCCO3)c2C)s1 (configuration not stated)	3%	u	0.2%	-6%	3%	3%	-19%	0%
O=C(c1ccc(Cl)cc1)c1ccc(OCC(=O)N2CCOCC2)cc1	-6%	-69%	-3.3%	16%	22%	u	-13%	7%
CC(=O)OC(C(=O)NC1CCCCC1)c1ccncc1 (configuration not stated)	-4%	3%	0.3%	8%	-3%	16%	x	2%
N#Cc1cn(-c2ccccc2)nc1-c1ccco1	-12%	-11%	6.8%	1%[3.69 µM]	0%	u	18%	19%
CC1Cc2ccccc2N1C(=O)COC(=O)c1ccc(S(=O)(=O)N(C)C)cc1 (configuration not stated)	13%	-14%	-4.0%	-8%	4%	22%	2%	1%
Nn1c(SCC(=O)NC2CCCc3ccccc32)nnc1-c1cccs1 (configuration not stated)	-2%	-13%	-0.6%	8%	6%	-10%	u	-10%
O=C(NCCOC(=O)c1ccc(F)cc1)c1ccc(F)cc1	-1%	1%	x	28%	x	x	-11%	x
CCOc1ccc(-n2c(=O)[nH]cc(C(=O)Nc3ccc(OC)c(OC)c3)c2=O)cc1	0%	x	x	-1%	x	8%[46.1 µM]	-8%	u
O=C1CC(N2CCN(C/C=C/c3ccccc3)CC2)C(=O)N1Cc1ccc(N2CCCC2=O)cc1 (configuration not stated)	-7%	-14%	-0.7%	-26%	7%	u	u	-13%
COC(=O)c1ccc(CN(c2ccc(C(=O)O)c(O)c2)S(=O)(=O)c2ccc(Cl)c([N+](=O)[O-])c2)cc1	-2%	-1%	x	21%	x	u	-10%	-20%
Clc1ccc(-c2n[nH]c3c2CCC3)c(Cl)c1	5%	-139%	-9.4%	u	4%	-18%	-17%	-1%
CCOC(=O)N1CCN(S(=O)(=O)c2ccc(C(=O)Nc3ccc4c(c3)C(=O)NC4=O)cc2)CC1	17%	11%	-5.1%	-3%	19%	2%	2%	-9%
CCCNC(=O)c1cc2nc(-c3ccc(Br)cc3)cc(C(F)(F)F)n2n1	x	x	-1.2%	x	12%	4%[46.1 µM]	-20%	2%[46.1 µM]
O=C(Nc1nnc(C2CC2)s1)c1cccc(S(=O)(=O)N2CC(c3ccccc3)CC2=O)c1 (configuration not stated)	-1%	11%	-5.8%	-5%	-6%	x	-15%	x
COc1ccc(CCNC(=O)C2CC(=O)N(c3ccccc3)C2)cc1OC (configuration not stated)	3%	11%	1.1%	2%	-4%	8%	-4%	-6%
CCn1c(=N)n(Cc2ccccc2F)c2ccccc21	9%	9%	-2.4%	-8%	4%	u	0%	-3%
Cc1cc(C)c(S(C)(=O)=O)c(Oc2cccc(Cl)c2)n1	1%	3%	-4.6%	4%	5%	1%	-11%	-13%
CCNC(=S)NNC(=O)c1cc(-c2cccc(OCC)c2)nc2ccccc12	12%	-3%	-6.4%	-15%	13%	15%	55%[activator]	-4%
COC(=O)c1cn[nH]c1NC(=S)Nc1ccc(C)cc1Cl	-6%	-9%	-2.5%	-2%	-19%	u	u	7.3µM*
N#Cc1ccccc1Cn1c(=O)n(-c2ccc(F)c(Cl)c2)c(=O)c2sccc21	x	x	2.3%	x	17%	0%[46.1 µM]	-11%	u
Cc1ccc(NC(=O)Cn2c(=S)[nH]c3ccccc32)cc1	2%	x	x	0%	x	0%[46.1 µM]	23%	-2%
CCOc1ccccc1N1CCN(S(=O)(=O)c2cccs2)CC1	-5%	-62%	-5.3%	2%	-2%	-18%	x	-12%
CC(C)c1c(C#N)c(N)nc(SCC(=O)c2cc3ccccc3oc2=O)c1C#N	-8%	10%	1.1%	1%	-37%	u	u	u
C=CCNC(=O)Cn1c(=O)c2c(ncn2CCC(C)C)n(Cc2ccccc2)c1=O	0%	-13%	x	-3%	x	21%[46.1 µM]	-12%	u
CCOC(=O)CN(C(=O)CN1CCOCC1)c1ccc(Br)cc1	7%	4%	-0.5%	-15%	9%	-18%	16%	-2%
COCCn1c(C)cc(C(=O)CSc2cc(C)c3ccccc3n2)c1C	12%	20%	10%	2%	8%	u	10%	u
COc1ccccc1NC(=O)c1ccc(NC(=O)CSc2nnnn2C)cc1	1%	-12%	-1.7%	14%	-13%	2%[46.1 µM]	-20%	0%
O=C1c2cccc3c(N4CCCCC4)ccc(c23)C(=O)N1c1cccc(O)c1	0%	4%	x	1%	x	u	-10%	x
O=C(N/N=C\c1cc2c(cc1Cl)OCO2)c1cccs1	0%	-4%	x	-8%	x	x	25%	x
C=CCn1c(Br)nc2c1c(=O)n(C)c(=O)n2C	0%	-1%	7.3%	5%	-9%	-1%	-18%	0%
CCN(CC)CC(O)c1ccc2ccc3ccc(O)cc3c2c1 (configuration not stated)	x	x	x	4%	x	u	-22%	u
Cc1ccc(S(=O)(=O)Nc2ccc(-c3ccc4nncn4n3)cc2)cc1	-2%	x	x	-22%	x	0%[46.1 µM]	16%	-7%
CCOc1ccc(NC(=O)Cc2c(O)c3ccccc3[nH]c2=O)cc1	-2%	4%	0.5%	-18%	-19%	-1%	-4%	14%
Cc1ccc(-n2ncc(C(=O)Nc3ccc(C)c(F)c3)c2C2CCN(C(=O)OC(C)(C)C)CC2)cc1C	x	x	3.1%	x	-3%	x	4%	-3%[46.1 µM]
CN1CCN(NC(=O)NC2CCCCC2)CC1	2%	9%	x	-5%	x	x	-10%	x
CSc1ccc(/C=C/C(=O)OCC(=O)N(C)CCC#N)cc1	-4%	x	x	6%	x	5%	9%	17%
CCOC(=O)c1ccc(-n2ccnc2)c(NC(=O)c2ccc(C(C)(C)C)cc2)c1	2%	-2%	-3.6%	-24%	-10%	u	-10%	-13%
O=C(O)[C@H](Cc1ccccc1)N1C(=O)c2c(Cl)c(Cl)c(Cl)c(Cl)c2C1=O	1%	13%	x	3%	x	x	-28%	x
CCOC(=O)c1c(C)oc(NC(=O)COc2ccc(Cl)cc2C)c1C#N	-3%	-15%	-8.0%	0%	23%	-11%	-5%	-24%
CCOc1ccc(N2C(=O)CC(N3CC(C)OC(C)C3)C2=O)cc1 (configuration not stated)	-30%	-35%	4.7%	u	-9%	u	10%	-2%
COc1cc(N2CN=c3s/c(=C\c4ccccn4)c(=O)n3C2)cc(OC)c1OC	-3%	-24%	-6.7%	19%	-6%	-1%	1%	7%
O=C(OCCOc1ccccc1)c1cccc(S(=O)(=O)N2CCOCC2)c1	-2%	x	x	-7%	x	6%	-11%	1%
CN(C)c1ccc(/C=C/[N+](=O)[O-])cc1	-59%	-52%	-4.0%	-27%	2%	-15%	-28%	0%
CCCOc1ccc(Cn2cnc3ccccc32)cc1	-4%	-8%	-4.5%	u	-2%	u	-24%	-27%
